VACV mCherry inh = vaccinia inhibition (mCherry reporter); Vaccinia virus mCherry reporter infection, fluorescence; about a quarter of the inactives have no number; Potency, µM (highest dose often 36.5 µM), for the others: at the top dose activity change, negative = inhibition, hits mostly inhibitors; 310,000 compounds, 0.63% hits; AID 720579; active = well fitted inhibition curve with a large enough effect; inconclusive = small, poorly fitted or top-dose-only effect; inactive = no such curve, though single readings can be large or run the other way; tested in A549 cells; further: nearly all actives have a fitted effect of over 35% in size; inactives centre near -10
VACV Venus inh = inhibitors of vaccinia virus (Venus reporter); Vaccinia virus Venus reporter expression, fluorescence; Potency, µM (titrated, usually from 36.5 µM), inactives show top-dose activity change, negative = inhibition, usual class: inhibitors; 330,000 compounds, 0.46% hits; AID 720580; active means well fitted inhibition curve with a large enough effect; inconclusive means small, poorly fitted or top-dose-only effect; inactive means no such curve, though single readings can be large or run the other way; tested in A549 cells; further: nearly all actives have a fitted effect of over 30% in size; inactives centre near -10
Active calls of the source: *; i = inactive; ? = inconclusive; . = no result given; & = joins results of further samples; [ ] = dose if it differs, or a comment. On the % scale 0 is the no-effect control and ±100 the full control effect; potency means the concentration at half of the fitted maximal effect.

Order of results: VACV mCherry inh, VACV Venus inh
- O=C(COc1ccc2ccccc2c1)NC1CC1
    -13%, -5%
- Cc1cc(C)n(CC2CC(=O)N(c3ccc(F)c(Cl)c3)C2=O)n1 (stereo not drawn)
    -8%, -3%
- CNCc1sccc1C
    -6%, -10%
- Cc1ccc(NC(=O)CCNS(=O)(=O)c2cccs2)cc1F
    2%&-1%, 0%&-3%
- O=S1(=O)CC(N2CCSCC2)CN1Cc1cn(Cc2cccc(Cl)c2)nn1 (stereo not drawn)
    24%, -2%
- COc1ccc(OC(=O)N(C)C[C@H]2OCc3cnnn3CCCC(=O)N([C@H](C)CO)C[C@@H]2C)cc1
    i, -3%
- C[C@@H]1CN([C@H](C)CO)C(=O)c2cc(NC(=O)C3CCCCC3)ccc2O[C@@H]1CN(C)Cc1ccc(C(F)(F)F)cc1
    -13%, ?
- Cc1cccc(C)c1Nc1nnc(SCC(=O)Nc2ncc(C(F)(F)F)cc2Cl)s1
    -12%, -6%
- CCCCCn1c(-c2ccc(OC)c(OC)c2)nc2ccccc21
    7%, -6%
- CCOC(=O)c1[nH]c2ccccc2c1NC(=O)c1ccc(OC)c(OC)c1
    -11%, -12%

(list continues)
Order of results: VACV mCherry inh, VACV Venus inh
- N#Cc1cccc(C(=O)C(=O)N2CCCN(Cc3ccc(F)cc3)CC2)c1
    ?, -9%
- O=C(c1cc(F)c(F)cc1Cl)N1CCN(c2ccc([N+](=O)[O-])c3ncccc23)CC1
    -15%, -5%
- O=C(NC12CC3CC(CC(C3)C1)C2)C1=COCCO1
    -2%[1.46 µM], -17%
- CCCCOc1ccc(N(CC(=O)NC(C)C)C(=O)CCC(=O)Nc2ccccn2)cc1
    -2%, -5%
- CCOC(=O)c1ccc(NC(=O)CC2C(=O)N(c3ccc(F)cc3)C(=O)N2Cc2cccnc2)cc1 (stereo not drawn)
    -6%, -8%
- c1ccc2c(c1)CC1(CCCCC1)n1nnnc1-2
    -17%, -4%
- CC(C)NCC(O)COc1c(F)cc(Br)cc1F (stereo not drawn)
    ., -8%
- O=C(N/C(=C/c1cccc(Br)c1)C(=O)N1CCOCC1)c1ccco1
    i, -12%
- CN(C)S(=O)(=O)c1ccc(NC(=O)CCNC(=O)c2ccco2)cc1
    11%, 6%
- CC(=O)c1c(O)n(-c2cccc(Cl)c2)c(=O)[nH]c1=O (tested in a mixture with another compound)
    -12%, -9%

Additional compounds
Order of results: VACV mCherry inh, VACV Venus inh
- CN(C)C(CNC(=O)C1CCN(S(=O)(=O)c2cccc(C(F)(F)F)c2)CC1)c1ccccc1 (stereo not drawn)
    -19%, -7%
- O=c1[nH]cc(Cc2ccccc2)c(=O)[nH]1
    i, -11%
- COc1ccc(OCCN2CCN(C(=O)c3ccc(OC)cc3)CC2)cc1
    -9%, -11%
- Cc1cc(Cl)c(S(=O)(=O)Nc2ccc(Cl)cn2)cc1OCC(N)=O
    -8%, -2%
- CCCNC(=O)c1cnn2c(C)c(Cc3c(C)cc(C)cc3C)c(C)nc12
    ?, ?
- Cn1cc(S(=O)(=O)Nc2ccc(F)cc2F)c(=O)n(C)c1=O
    i, -21%
- Cc1nc(C)c(C(=O)NCCC(c2ccccc2)c2ccccc2)o1
    i, -19%
- Cc1cc2c(cc1C)-n1nnnc1C(N1CCN(c3ncccc3C#N)CC1)C(=O)N2 (stereo not drawn)
    -24%, -10%
- CCN(CC)C(=O)[C@H]1CC(CC(=O)NCCCN(C)C)C(=O)N2CCc3c([nH]c4ccc(OC)cc34)[C@]12C (stereo partly drawn)
    i, -9%
- CCC1Sc2ccc(S(=O)(=O)N3CCN(c4ccccc4)CC3)cc2NC1=O (stereo not drawn)
    -7%[7.34 µM], 0%[7.34 µM]

(more compounds)
Order of results: VACV mCherry inh, VACV Venus inh
- CCc1nc2ccc(C(=O)Nc3cccc(OCC(=O)N(C)C)c3)cn2c1N(C=O)Cc1ccc(OC)cc1
    12%, 1%
- COC(=O)C1=C(c2ccc(OC)cc2)OC(=O)C1(C)C
    i, -19%
- Cc1ccc(S(=O)(=O)N2CCN(C(=O)CC(C)(C)C)CC2)cc1
    -3%, -14%
- O=C(NN=C1CCCCC1)c1cc(-c2ccccc2)n[nH]1
    -9%, 8%
- O=C(Cc1ccc(Cl)cc1)NCC(=O)N1CCN(Cc2ccccc2)CC1
    -19%, -16%
- CCc1nnc(NC(=O)CCC(=O)N2CCN(c3ccccn3)CC2)s1
    -11%, -3%
- CCOC(=O)c1c(NS(=O)(=O)c2cccc(OC)c2)sc2c1CCC2
    -17%, -2%
- CCN(CC)S(=O)(=O)c1nnc(NC(=O)COc2ccc(C)cc2)s1
    -10%, 3%
- CCOc1ccc(C(=O)NCC(=O)Nc2ccc3c(c2)OCO3)cc1OCC
    -15%, -9%
- CSc1cc(C)nc(NC(C)=O)n1
    -13%, -7%

(list continues)
Order of results: VACV mCherry inh, VACV Venus inh
- O=C1CN(C(=O)COC(=O)c2cnc(Cl)c(Cl)c2)c2ccccc2N1
    i, -7%
- CCOc1ccc(-c2noc(-c3cccnc3)n2)cc1OCC
    i, 2%
- CCCN1CCN(CCCNC(=O)CCn2nc(-c3ccccc3)ccc2=O)CC1
    -3%, -4%
- CNc1ccc(C=O)cc1Br
    -14%, -4%
- Cc1ccc(Cn2cc(-c3ccccc3)nn2)cc1
    -1%, -8%
- Cc1nn(C)c(C)c1CN(C)C(=O)CCCC(=O)O
    i, -17%
- CC1CCC(NS(=O)(=O)c2ccc(Cl)nc2)CC1 (stereo not drawn)
    -29%, -23%
- O=C(CSc1nnc2ccc(-c3cccnc3)nn12)Nc1ccccc1
    -19%, -20%
- CCc1ccc(N(CC(=O)NCc2ccco2)C(=O)CCC(=O)Nc2nccs2)cc1
    i, 0%
- COc1ccc(CNC(=O)COc2cc3c(c4oc(=O)cc(C)c24)CCC(C)(C)O3)cc1
    -8%, -15%

Continuation.
Order of results: VACV mCherry inh, VACV Venus inh
- Nc1c(Br)c(=O)[nH]c(=O)n1-c1ccc(F)cc1
    0%, 8%
- CCOC(=O)Cn1c(=NC(=O)C(C)C)sc2c(C)cc(C)cc21
    9%, -6%
- Cc1ccc(CNC(=O)C2CCC(CNc3nc(=S)[nH]c4ccccc34)CC2)cc1 (stereo not drawn)
    -14%, -10%
- CCOC(=O)N1C2=NC(C(=O)OC)=C(C(=O)OC)[C@@H]3N(Cc4ccccc4)c4ccccc4[C@]23C[C@H]1C(=O)OC
    -5%, -20%
- Cc1ccc(NC(=O)CS(=O)CC(=O)N(C2CCCC2)C(C)C(=O)NC2CCCCC2)cc1 (stereo not drawn)
    -24%, -15%
- CCC(=O)NC1(C(F)(F)F)C(=O)NC(C)=C1C#N (stereo not drawn)
    -12%, -6%
- CC1CCC(n2c(=S)[nH]c3ccccc3c2=O)CC1 (stereo not drawn)
    i[1.46 µM], -27%
- O=C(CN1CCC(NC(=O)C2CC2)CC1)Nc1cccc(F)c1
    16%, -2%
- Cc1ccc(C(=O)N2CCCCCC2)cc1S(=O)(=O)Nc1ccccc1
    -20%, -10%
- Cc1ccc(CO/N=C/C2=C(Cl)c3ccccc3CC2)cc1
    ., -9%

Following part.
Order of results: VACV mCherry inh, VACV Venus inh
- O=C1CCC([N+](=O)[O-])C(C2CC=CCC2)N1 (stereo not drawn)
    -1%[7.34 µM], 1%[7.34 µM]
- CC(C)C[C@@H]1CN=C(N)N1C[C@@H]1CCCN1C[C@H](C)N1C[C@@H](Cc2ccccc2)N(CCc2ccc(Cl)c(Cl)c2)C1=N
    i, -10%
- CNC(=O)NC(=O)COC(=O)c1ccc(-n2c(C)ccc2C)cc1
    -14%, -13%
- COc1ccc(S(=O)(=O)Nc2nc3ccccc3s2)cc1
    -4%, -21%
- COc1cc2c(cc1OC)C1=C(C#N)CN(C3CCCCC3)CN1CC2
    5%, 0%
- CCC(=O)N1CCc2cc(CNC(=O)c3cccc(N(C)C)c3)ccc21
    -12%, -11%
- Cc1nnc(SCC(=O)NCc2ccccc2Cl)n(N)c1=O
    -16%, -5%
- CCCCn1cnc2c(c1=O)c1nc3ccccc3nc1n2Cc1ccc2c(c1)OCO2
    -7%[7.34 µM], 1%[7.34 µM]
- O=C(COc1ccccc1Cl)Nc1ccc(S(=O)(=O)Nc2ccccn2)cc1
    ?, -12%
- CCOC(=O)Cc1c(C)[nH]c(=S)[nH]c1=O
    i, -12%

(cont.)
Order of results: VACV mCherry inh, VACV Venus inh
- COc1ccc(OCC(=O)N2CCN(Cc3cccc(OC)c3OC)CC2)cc1
    -10%[7.34 µM], -9%[7.34 µM]
- CN1C2CCC1/C(=C\c1ccccc1F)C(=O)/C2=C/c1ccccc1F
    11µM*, ?
- CCC1=C(OC(=O)N(CC)CC)N2C(=O)OC(=NCC3CC3)[C@]2(Cc2ccccc2)[C@H]2C1=CC[C@H]1C(=O)NC(=O)[C@H]12
    i, -12%
- CS(=O)(=O)N1CCC(C(=O)Nc2ccc(Oc3ccccc3)cc2)CC1
    -15%, -16%
- Cc1ccc(-c2nc3cccnc3o2)cc1NC(=O)COc1ccc(C(C)(C)C)cc1
    ., ?
- Cc1ccnc2nc(C(=O)OCC(=O)Nc3ccc4c(c3)OC(F)(F)O4)nn12
    0%, -3%
- O=C(CCCOc1ccc(Cl)cc1)Nc1nncs1
    i, -11%
- COc1cc2c(C(=O)N3CCN(C)CC3)c(CSc3ccccc3)n(C)c2cc1Br
    -15%, -5%
- Cc1ccc(NC(=O)CCNC(=O)c2ccccc2Cl)cc1S(=O)(=O)N(C)C
    -10%, -16%
- COc1cc(NC(=O)c2nc3ccccc3nc2N2CCCCC2)cc(OC)c1OC
    -4%, 2%

Later entries
Order of results: VACV mCherry inh, VACV Venus inh
- CCOc1cccc(C(=O)Nc2ccncc2)c1
    i, -22%
- Cc1nnc(-c2ccccc2)[nH]c1=O
    -11%, 8%
- O=C(C(=O)N1CCN(c2ccc([N+](=O)[O-])cc2)CC1)c1cn(CC(=O)N2CCOCC2)c2ccccc12
    -16%, -18%
- CCCCN1C(=N)N([C@@H](C)CN2CCC[C@H]2CN2C(N)=NC[C@H]2CC(C)C)C[C@H]1[C@H](C)CC
    i, -5%
- CSc1ccccc1C(=O)N1CCC(CCC(=O)NCc2ccc(F)cc2)CC1
    -11%, -12%
- O=C1c2ccc(Oc3ccc4c(c3)C(=O)N(CCCCO)C4=O)cc2C(=O)N1CCCCO
    ., -21%
- COc1ccc(C2(c3ccc(OC)cc3)NC(=O)N(CC(=O)NC(C)C)C2=O)cc1
    -1%, -1%
- COC(=O)c1ccc(COC(=O)c2ccc(C)c(S(=O)(=O)N3CCCCC3)c2)cc1
    i, -15%
- CCOc1ccc(-n2cnnn2)cc1S(=O)(=O)N1CCCCC1
    i, -12%
- O=C(O)CSCC(=O)NCc1ccccc1
    -14%, -3%

(further entries)
Order of results: VACV mCherry inh, VACV Venus inh
- CSCc1cc(C(=O)NC2CC2)c(N)s1
    -18%, 7%
- S=C(NCCc1ccccc1)N1CCCC1
    -4%, 3%
- COc1ccc(OCC(=O)Nc2cccc(C(=O)OCc3cc(=O)n4nc(C)sc4n3)c2)cc1
    -22%, -23%
- CCOc1cccc(CNCCNC(=O)c2nonc2N)c1
    6%, 1%&-4%
- O=C(NCCc1nc2ccccc2[nH]1)/C(=C/c1ccco1)NC(=O)c1ccc(Br)cc1
    -27%, -14%
- CC(=O)c1ccc(NC(=O)C(C)Sc2nnc(C3CC3)n2C2CC2)cc1 (stereo not drawn)
    i, -10%
- Cc1cc(C)cc(N2C(=O)CC(c3ccc(C(F)(F)F)cc3)C3=C2COC3=O)c1 (stereo not drawn)
    5%, 7%
- Cc1cc(OC(=O)c2ccccc2Br)c([N+](=O)[O-])c(=O)[nH]1
    -4%, 14%
- O=[N+]([O-])c1cc(S(=O)(=O)Nc2ccccc2)ccc1N1CCN(c2ccc(O)cc2)CC1
    -6%, -12%
- Cc1ccc(C)c(CN2CCCN(Cc3ccc(F)cc3)S2(=O)=O)c1
    -3%, 0%

(listing goes on)
Order of results: VACV mCherry inh, VACV Venus inh
- CCOC(=O)C1CCCN(C(=O)c2ccc3c(c2)N(Cc2cccc(Cl)c2)C(=O)c2ccccc2S3(=O)=O)C1 (stereo not drawn)
    2%, -3%
- Cc1cccc(OCCn2cc(/C=N/NC(=O)c3ccncc3)c3ccccc32)c1
    ?, ?
- CCOC(=O)CN(C(=O)CSc1nnc(CNc2ccc(F)cc2)n1C)c1ccccc1
    -5%, -8%
- O=C(COC(=O)c1ccc2c(c1)C(=O)N(CCc1ccccc1)C2=O)Nc1ccc(OC(F)F)cc1
    i, -12%
- CCOc1ccc(C(=O)COC(=O)c2nc3nccc(C)n3n2)cc1
    i, -4%
- Cc1nn(C(C)C(=O)Nc2ccc(Cl)cn2)c(C)c1[N+](=O)[O-] (stereo not drawn)
    i, -13%
- C/C(=N\NC(=O)c1ccc(Cl)cc1)c1cccc(NC(=O)c2cccnc2)c1
    -7%, -9%
- COc1ccc(CNC(=O)c2cnc3sc(N4CCCC4)nn3c2=O)cc1OC
    i, -20%
- Cc1ccc(CNC(=O)CC[C@H]2O[C@@H](n3cc(C)c(=O)[nH]c3=O)C[C@@H]2O)o1
    i, -12%
- COc1ccc(C)cc1S(=O)(=O)Nc1ccccc1C
    -15%, -14%
- O=C(NCCCN1CCOCC1)c1cc(C(=O)C2CCCCC2)c[nH]1
    0%, 3%
- COc1ccc(/C=N/NC(=O)c2ccccc2OC)cc1COc1ccc(C)cc1
    -20%, -13%

Reformatted with each value named: part of the list above
COc1ccc(CNC(=O)c2cnc3sc(N4CCCC4)nn3c2=O)cc1OC
  VACV mCherry inh = i	VACV Venus inh = -20%

CN1C2CCC1/C(=C\c1ccccc1F)C(=O)/C2=C/c1ccccc1F
  VACV mCherry inh = 11µM*	VACV Venus inh = ?

CCCCCn1c(-c2ccc(OC)c(OC)c2)nc2ccccc21
  VACV mCherry inh = 7%	VACV Venus inh = -6%
